YjeE inh = qHTS Assay for Inhibitors of YjeE. tRNA threonylcarbamoyladenosine biosynthesis protein TsaE (Escherichia coli (strain …. purified YjeE, fluorescence polarisation of a bound ADP probe. Potency, µM. actives 0.05% (n = 71,000); active = well fitted falling curve; inconclusive = weaker or top-dose-only fall, or a rising curve; inactive = flat or poorly fitted curve;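 note: top concentration of the series not given in the record; excess ADP was the control for the full effect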
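Fluorescence polarization of a BODIPY Texas Red–ADP probe (2 uM) bound to purified YjeE (10 uM) was read after 15 min room-temperature incubation with compounds. Loss of polarization marks inhibitors; ADP serves as titrated control.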
Bst PK mod = Pyruvate Kinase; actives 1.2% (n = 51,000); Potency, µM; partly purified Bacillus stearothermophilus pyruvate kinase, luminescence ATP production; ribose 5-phosphate activator present at AC10; in the data active means potency below about 11 µM; inconclusive means mostly about 12 µM to 25 µM; inactive means weaker than that;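 the screen sought inhibitors and activators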;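 note: potency is the fitted concentration of half-maximal effect; scaled between full activation by ribose 5 phosphate and full inhibition by luteolin; about four in five hits inhibit and the cells do not say which; series up to 57 µM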
* = called active by the depositor; i = inactive; ? = inconclusive; / = no result given. These rows are one share of the data. The share of hits here may be higher or lower than overall.

YjeE inh	Bst PK mod	mol
i	>57	O=C1CC(N(Cc2ccc3c(c2)OCO3)C(=O)Nc2ccc(F)cc2)C(=O)N1c1ccccc1 (centres undefined)
i	/	Cc1cc(C)nc(SCC(=O)Oc2ccc3oc(=O)cc(C)c3c2)n1
i	>57	O=C(O)c1ccc(CN2CCCCC2)o1
i	>57	OC1(c2ccccc2F)CCN(Cc2nnnn2CCc2ccccc2)CC1
i	/	Nc1nc(=S)c2ncn([C@H]3O[C@@H](CO)[C@@H](O)[C@@H]3O)c2[nH]1
i	>57	CSc1nc(C)cc(OCNC(=O)c2cccs2)n1
i	>57	Cc1cc(C)c2c(CN3CCN(Cc4ccc5c(c4)OCO5)CC3)cc(=O)oc2c1C
i	/	O=C(O)c1ccccc1-c1ccccc1C(=O)c1ccccc1
i	/	Nc1nnc(CCc2ccccc2)s1
i	/	NS(=O)(=O)c1ccc(N=Nc2c(O)c(C(=O)O)cc3ccccc23)cc1
i	>57	O=C(c1cc2cc(Br)ccc2oc1=O)N1CCN(c2ccccn2)CC1
i	>57	COc1cccc(OC)c1C(=O)N1CCN(c2c(Cc3ccccc3)c(C)nc3ncnn23)CC1
i	/	CC(=NCCc1ccccc1)C1=C(O)CSC1=O
i	>57	Cc1cnc(C(=O)OCC(=O)N2c3ccccc3NC(=O)C2(C)C)cn1
i	>57	CCc1ccc(N(CC(=O)NC)S(C)(=O)=O)cc1
i	/	Cc1cc(C2CCCCC2)n(O)c(=O)c1
i	>57	O=C(CCCc1c[nH]c2ccccc12)N1CCN(S(=O)(=O)c2cccs2)CC1
i	/	O=C(O)[C@H](/C=C\c1ccccc1)c1ccccc1
i	>57	Cc1ccc(S(=O)(=O)N2CCN(C(=O)CN3C(=O)NC4(CCOc5ccccc54)C3=O)CC2)cc1 (centres undefined)
i	i	CN(C)CCn1c(C(=O)Nc2ccccc2)cc2ccccc21
i	>57	Cc1ccc(Cn2c(SCCN3CCOCC3)nc3c2c(=O)n(C)c(=O)n3C)cc1
i	/	COC(=O)N1CCC2(CCCN(Cc3ccccc3)C2)CC1
i	/	CC(C)(C)OC(=O)[C@H]([C@@H]1N[C@@H](C(=O)O)C(C)(C)S1)N1C(=O)c2ccccc2C1=O
/	>25.6	CC1CN(C2CCN(C(=O)c3ccccc3)CC2)CC(C)O1 (centres undefined)
i	>57	Cc1c(C(=O)O)nnn1-c1ccccc1
i	>57	O=C(COc1ccccc1)Nc1ncc2c(n1)CCCC2=O
i	>57	COc1ccc(C(CC(=O)O)NC(=O)c2ccco2)cc1OC (centres undefined)
i	>57	O=C(Nc1c(C(=O)Nc2ccc3c(c2)OCCO3)cnn1-c1ccccc1Cl)c1ccco1
i	/	COc1cccc(C(=O)Nc2nnc(C(C)C)s2)c1
i	>57	CCOC(=O)c1cc(-c2ccccc2)n(CC(=O)O)c1C
i	>57	O=C(CN1CCN(S(=O)(=O)c2ccc(F)cc2)CC1)Nc1ccc2c(c1)OCO2
i	/	Cc1noc(NS(=O)(=O)c2ccc(NC(=O)CCn3c(=O)oc4ccccc43)cc2)c1C
i	>57	Cn1c(=O)c2cc(NCc3ccccc3)nnc2n(C)c1=O
i	>57	CCOc1ccc(Cc2nnc(SCC(=O)c3ccc(OC)cc3)o2)cc1
i	/	Fc1ccccc1N1CCN(c2nc3ccccc3n3nnnc23)CC1
i	/	Cn1c(SCC(=O)Nc2ccccc2F)nnc1-c1cccnc1

3 compounds from above, arranged by length of the SMILES, highest first.
YjeE inh	Bst PK mod	mol
i	/	Cc1noc(NS(=O)(=O)c2ccc(NC(=O)CCn3c(=O)oc4ccccc43)cc2)c1C
i	>57	O=C(CCCc1c[nH]c2ccccc12)N1CCN(S(=O)(=O)c2cccs2)CC1
i	/	Cn1c(SCC(=O)Nc2ccccc2F)nnc1-c1cccnc1

Following part.
YjeE inh	Bst PK mod	mol
i	/	O=c1c2[nH]c3ccc(Cl)cc3c2ncn1CCN1CCCCC1
i	/	COc1ccc(Cc2nc(-c3ccc(Br)o3)no2)cc1OC
i	>57	CC(Oc1ccccc1)C(=O)NCc1cccnc1 (centres undefined)
i	/	CC1CN(C(c2ccco2)c2sc3ncnn3c2O)CC(C)O1 (centres undefined)
i	/	O=C(Oc1ccccc1)N1CCC2(CCCN(c3ccncc3)C2)CC1
i	/	CCCCNc1nc(C)nc2c1nc(-c1ccccc1)n2CCCCN(CC)CC
i	>57	N#Cc1nc(COc2ccc(F)cc2)oc1N1CCCC1
i	>57	Cc1ccc(N(C(=O)CCC(=O)Nc2cc(C)on2)C(C(=O)NC2CCCC2)c2ccncc2)cc1 (centres undefined)
i	>57	N#Cc1cc2c(nc1SCc1cccnc1)CCCC2
i	>57	COCCN1CSC(=S)N(Cc2ccco2)C1
i	>57	NC(=O)CSc1nnc(Cc2csc(Nc3ccccc3)n2)n1Cc1ccccc1
i	/	CC12CCC(C(=O)Nc3ccccc3N3CCOCC3)(CC1=O)C2(C)C (centres undefined)

Full records, looked up by structure. Order of screens: YjeE inh	Bst PK mod
Shown for N#Cc1cc2c(nc1SCc1cccnc1)CCCC2 = i	>57
Shown for O=C(Oc1ccccc1)N1CCC2(CCCN(c3ccncc3)C2)CC1 = i	/
Shown for Cc1ccc(N(C(=O)CCC(=O)Nc2cc(C)on2)C(C(=O)NC2CCCC2)c2ccncc2)cc1 (centres undefined) = i	>57
Shown for N#Cc1nc(COc2ccc(F)cc2)oc1N1CCCC1 = i	>57

More results follow.
YjeE inh	Bst PK mod	mol
i	>57	CCn1c(=O)cc(SCC(=O)NCCN2CCN(Cc3ccccc3)CC2)c2ccccc21
i	/	CS(=O)(=O)N1CCC[C@@]2(CCN(C(=O)Nc3cccc(F)c3)C2)C1
i	>57	O=C(O)c1cc(NCc2cccs2)ccc1N1CCOCC1
i	>57	CCC1Sc2ccccc2N(CC(=O)NCCC(C)C)C1=O (centres undefined)
i	>57	COc1ccccc1NC(=O)CSc1nnc(C2CCCCC2)n1C
i	/	O=C(c1ccncc1)N1CCC2(CCCN(c3ccc(-c4ccccc4)cc3)C2)CC1
i	>57	COc1cccc(CN2C(=O)C3(C(C#N)=C(N)OC4=C3C(=O)CCC4)c3ccccc32)c1 (centres undefined)
i	>57	CC1CCC(NS(=O)(=O)c2ccc3c(c2)n(C)c(=O)c(=O)n3C)CC1 (centres undefined)
i	>57	CCN1CCN(C(=O)c2cnn3c(C(F)F)cc(-c4ccc(C)cc4)nc23)CC1
i	>57	CN1C(=O)NC(c2ccc(O)cc2)C(C(=O)c2cccs2)C1(O)C(F)(F)F (centres undefined)
i	>57	O=C(Nc1cccc(C(=O)N2CCOCC2)c1)c1cccnc1
i	>57	Clc1ccc(OCc2cn3cccnc3n2)c2ncccc12
i	/	C=CCN1C(=O)/C(=C2/Sc3ccccc3N2CCCS(=O)(=O)O)SC1=S
i	>57	COc1cc(NC(=O)c2c(F)cccc2F)nc(OC)n1
i	/	O=C1NCN(c2ccccc2)C12CCN(CCCC(c1ccc(F)cc1)c1ccc(F)cc1)CC2
i	/	CCOc1ccc(C2CC(c3ccc(F)cc3)Nc3nc(N)nn32)cc1 (centres undefined)
i	>57	CCn1c(=O)cc(OCC(=O)Nc2cc(C)ccn2)c2ccccc21
i	>57	Cc1ccc2c(c1)CCCN2C(=O)C1CCCO1 (centres undefined)
/	2.47*	CC(C)(C)n1cnc2cc(NS(=O)(=O)c3ccc(Br)cc3)ccc21
i	>57	O=S1(=O)CCC(S(=O)(=O)N2CCCCCC2)C1 (centres undefined)
i	>57	CCCC(c1nnnn1CCc1ccccc1)N1CCN(C2CCCC2)CC1 (centres undefined)
i	>57	Cc1[nH]n(-c2ccccc2)c(=O)c1S(=O)(=O)c1ccccc1
i	>57	O=C(COc1ccccc1)NC1CCN(Cc2ccccc2)CC1
i	/	COC(=O)C1(C)C=C2C(=C(c3ccccc3)C(=O)C2C)CN1 (centres undefined)
i	>57	COc1ccc(C2C(C(=O)NCC3CCCO3)CCC(=O)N2c2ccc3c(c2)OCO3)cc1 (centres undefined)
i	>57	CC(CN1CCCCC1)OC(=O)c1ccccc1Cl (centres undefined)
i	>57	COc1cccc(C2NC(CC(C)C)(C(=O)O)C3C(=O)N(Cc4ccccc4)C(=O)C23)c1O (centres undefined)
i	>57	CCS(=O)(=O)c1ccc(O)c(N2C(=O)C3C4C=CC(C4)C3C2=O)c1 (centres undefined)
i	>57	O=C(c1c(Cl)nc2sccn12)N1CCCc2ccccc21
i	/	O=C1CCC(=O)N1c1cccc(-c2nc3ccccc3o2)c1
i	/	CN1CCc2c(sc3c2C(=O)NC(c2cccc(OC(=O)c4cccs4)c2)N3)C1 (centres undefined)
i	/	COc1ccc(C(=O)c2coc3ccc(O)c(CN4CCOCC4)c23)cc1
i	>57	COC(=O)c1ccc(NC(=O)c2ccc3c(c2)OCO3)cc1
i	>57	CCN(CC)c1ncccc1C(=O)NCc1cccs1
i	>57	COCCN(C(=O)C(C)C)c1nnc(-c2cccc(C)c2)s1
i	>57	COC(=O)c1cc(NC(=O)CN2CCOCC2)cc(C(=O)OC)c1
i	/	Cc1ccccc1-c1nc(CN2CCC(C(=O)N3CCN(c4ccccn4)CC3)CC2)c(C)o1
i	>57	COc1ccccc1NC(=O)C1CC(=O)OC1c1ccccc1 (centres undefined)
i	>57	O=C(O)CSc1nnc(-c2cccs2)n1-c1ccc(Cl)cc1
i	>57	O=C(NCc1ccccn1)c1cc(S(=O)(=O)N2CCN(c3ccccc3)CC2)ccc1Cl
i	/	CSc1ccccc1NC(=O)c1onc(C)c1Cl
i	>57	COc1ccc(Br)cc1C(=O)NCc1cccnc1
i	?	CC(=O)N1CCN(CC(=O)Nc2c(Cl)cc(Cl)cc2Cl)CC1
i	/	CCC(CC)C(=O)Nc1cccc(C(=O)NCc2ccco2)c1
i	>57	O=C(CN1CCN(c2ccccc2)CC1)N1CCN(c2ccccc2)CC1
i	>57	COc1ccccc1C(c1nnnn1C(C)(C)C)N1CCN(C(=O)c2ccco2)CC1 (centres undefined)
i	>57	O=C(CCc1ccc(S(=O)(=O)N2CCOCC2)cc1)NCCc1ccccn1
i	>57	Cc1ccc2c(c1)N(CC(=O)NC1CCC(C)CC1)C(=O)CO2 (centres undefined)
i	>57	CCC1CCCCN1CCn1c(=S)[nH]c2cc(OC)c(OC)cc2c1=O (centres undefined)
i	>57	Cc1ccccc1-c1nc(CS(=O)CC(=O)NCCCN(C)c2ccccc2)c(C)o1 (centres undefined)
i	/	COc1ccccc1-c1oc2ccccc2c(=O)c1OC
i	/	CCNc1ncc2nc(-c3cccs3)c(=O)n(Cc3ccc(F)cc3)c2n1
i	>57	CC(=O)Nc1c(O)nc(SCC(=O)Nc2nnc(CC(C)C)s2)[nH]c1=O
i	>57	Cc1cc(=O)n(CCO)c(O)c1C#N
i	/	OCc1ccncc1.OCc1ccncc1.[Cl][Pt]([Cl])([Cl])[Cl]
i	>57	Cc1c(C(=O)N2CCN(c3ccccc3F)CC2)sc2nc(-c3ccccc3)cn12
i	/	CCOc1ccccc1N1C(=O)c2cccnc2C1=O
i	/	C[C@@]1(C(NC(=O)c2ccccc2)c2ccc(-c3ccccc3)cc2)C[C@H]1C1CCCCC1 (some centres undefined)
i	/	COC(=O)c1ccc(C(NC(=O)OCc2ccccc2)/C(I)=C/[C@@H](C)C(=O)NCc2ccc(C)o2)cc1 (some centres undefined)
i	>57	COc1cc(NC(=O)C2CCCCC2)c(OC)cc1NC(=O)CCC(=O)NCc1ccco1

Among those listed so far, these contain an NH in an aromatic ring:
YjeE inh	Bst PK mod	mol
i	/	Nc1nc(=S)c2ncn([C@H]3O[C@@H](CO)[C@@H](O)[C@@H]3O)c2[nH]1
i	>57	O=C(CCCc1c[nH]c2ccccc12)N1CCN(S(=O)(=O)c2cccs2)CC1
i	/	O=c1c2[nH]c3ccc(Cl)cc3c2ncn1CCN1CCCCC1
i	>57	Cc1[nH]n(-c2ccccc2)c(=O)c1S(=O)(=O)c1ccccc1
i	>57	CCC1CCCCN1CCn1c(=S)[nH]c2cc(OC)c(OC)cc2c1=O (centres undefined)
i	>57	CC(=O)Nc1c(O)nc(SCC(=O)Nc2nnc(CC(C)C)s2)[nH]c1=O

The results go on.
YjeE inh	Bst PK mod	mol
i	>57	Cc1ccc(NC(=O)CCSc2nnnn2-c2ccc3c(c2)OCO3)cc1C
/	>25.6	CC1CCN(c2ncnc3c2cnn3Cc2ccc(Cl)cc2)CC1
i	>57	Cc1ccc(N2CC(C(=O)NCC3CCCO3)CC2=O)cc1Cl (centres undefined)
i	>57	CCCNC(=O)Cn1cnc2sc(C(=O)N3CCN(CCC)CC3)c(C)c2c1=O
i	>57	CC1(C)CC(=O)c2cc(OCC(=O)N3CCN(c4ccccc4F)CC3)ccc2O1
i	/	c1ccc2c(c1)ccc1ccccc12
i	/	COc1ccc(Oc2ncc3nc(-c4ccccc4)c(=O)n(C4CC4)c3n2)cc1
i	>57	CC(C)N(C(=O)CSc1nnnn1C1CCCC1)C(C)C
i	/	C=C(C)Cn1c(CNC(C)=O)nc2ccccc21
i	/	Cc1ccccc1C(=N)c1ccccc1Cc1cccc2ccccc12
i	>57	CC1(CCC#N)N=C(SCCC#N)N(c2ccccc2)C1=O (centres undefined)
i	>57	Cc1cc(C)n2c(SCC(=O)Nc3ncc(C(F)(F)F)cc3Cl)nnc2n1
i	>57	CC(C)C(OC(=O)c1ccco1)C(=O)NCc1ccccc1 (centres undefined)
i	>57	COc1cccc(C2=Nn3c(nnc3-c3ccccc3O)SC2)c1
i	>57	Cc1nc(SCC(=O)N2CCOCC2)c2ccsc2n1
i	/	c1ccc2cc(-c3cc(-c4cc(-c5ccc6ccccc6c5)on4)no3)ccc2c1
i	>57	COc1ccccc1CNC(=O)C(C)NS(=O)(=O)c1ccc(C)cc1 (centres undefined)
